Bioassay records as filed in PubChem.
APEX1 inh: APE1 (human) endonuclease inhibition; P27695; Potency, µM (titrated, usually from 65.8 µM), for inactives: at the top dose activity change, negative = inhibition, most hits filed as inhibitors; recombinant APE1, TAMRA/BHQ-2 abasic DNA cleavage fluorescence; actives 0.35% (n = 350,000);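 also: plate controls were vehicle for no effect and reference inhibitor for full effect; nearly all actives have a fitted effect of over 55% in size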
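Activity was derived from the fluorescence gain between first and third kinetic reads (60 s intervals, ex 525/em 598 nm) after 50 nM THF-abasic TAMRA/BHQ-2 duplex was added to 0.75 nM APE1 preincubated 15 min with compound.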
BLM inh: blocks DNA unwinding by human BLM helicase; P54132; recombinant BLM DNA unwinding, fluorescence dequenching; Potency, µM (doses to about 56.1 µM), for the others: at the highest dose activity change, negative = inhibition, most hits filed as inhibitors; actives 0.2% (n = 350,000); AID 2528;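 also: plate controls were vehicle for no effect and no enzyme for full effect; nearly all actives have a fitted effect of over 35% in size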
Target sequence (P54132 whole entry, looked up): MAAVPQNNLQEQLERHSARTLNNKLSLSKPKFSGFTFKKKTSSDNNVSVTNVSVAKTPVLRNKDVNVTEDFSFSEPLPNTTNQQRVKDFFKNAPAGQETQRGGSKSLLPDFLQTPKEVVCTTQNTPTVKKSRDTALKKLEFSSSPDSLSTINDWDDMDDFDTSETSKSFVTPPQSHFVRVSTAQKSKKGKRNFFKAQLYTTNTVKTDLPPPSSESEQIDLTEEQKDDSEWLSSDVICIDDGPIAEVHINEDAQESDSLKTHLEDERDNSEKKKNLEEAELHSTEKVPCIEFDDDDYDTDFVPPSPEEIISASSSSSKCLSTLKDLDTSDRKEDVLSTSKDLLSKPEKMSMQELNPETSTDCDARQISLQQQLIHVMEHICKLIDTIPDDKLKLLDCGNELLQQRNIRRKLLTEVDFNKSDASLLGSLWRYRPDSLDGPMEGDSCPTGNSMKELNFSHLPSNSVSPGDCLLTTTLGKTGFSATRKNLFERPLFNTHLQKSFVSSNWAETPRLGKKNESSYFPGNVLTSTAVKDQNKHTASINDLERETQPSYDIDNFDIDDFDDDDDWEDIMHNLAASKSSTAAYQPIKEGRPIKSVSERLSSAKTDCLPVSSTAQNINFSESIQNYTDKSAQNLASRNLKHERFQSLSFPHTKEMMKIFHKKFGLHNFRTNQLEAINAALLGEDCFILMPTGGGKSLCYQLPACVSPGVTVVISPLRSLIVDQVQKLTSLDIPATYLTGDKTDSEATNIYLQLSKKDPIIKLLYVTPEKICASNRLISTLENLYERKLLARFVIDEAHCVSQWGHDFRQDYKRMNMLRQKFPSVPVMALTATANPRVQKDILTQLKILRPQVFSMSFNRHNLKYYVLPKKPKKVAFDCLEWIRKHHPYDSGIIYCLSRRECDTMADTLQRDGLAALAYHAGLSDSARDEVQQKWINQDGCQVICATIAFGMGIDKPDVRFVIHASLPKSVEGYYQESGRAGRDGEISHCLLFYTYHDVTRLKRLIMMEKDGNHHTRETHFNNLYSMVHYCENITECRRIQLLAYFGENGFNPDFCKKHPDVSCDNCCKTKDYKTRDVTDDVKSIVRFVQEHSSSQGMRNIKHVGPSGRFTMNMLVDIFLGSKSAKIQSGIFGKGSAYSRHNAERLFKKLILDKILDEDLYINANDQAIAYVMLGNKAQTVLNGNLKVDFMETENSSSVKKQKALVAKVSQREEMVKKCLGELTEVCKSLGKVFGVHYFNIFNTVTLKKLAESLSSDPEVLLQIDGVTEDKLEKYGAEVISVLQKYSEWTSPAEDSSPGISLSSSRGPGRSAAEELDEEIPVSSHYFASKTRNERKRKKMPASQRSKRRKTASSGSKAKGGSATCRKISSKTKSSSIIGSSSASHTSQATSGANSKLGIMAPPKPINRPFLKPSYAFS
Apoferritin bind: binds horse apoferritin like a general anesthetic. P02791. apoferritin/1-aminoanthracene competitive binding, fluorescence. Potency, µM (series often up to 77.5 µM), without a hit: at the highest dose activity change, negative = displacement, most hits filed as inhibitors. actives 0.074% (n = 350,000); also: nearly all actives have a fitted effect of over 20% in size
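Concentration-response curves derived by four-parameter Hill fitting of normalized fluorescence, where compounds displaced 1-AMA from 10 uM horse apoferritin following a brief 10 min room-temperature incubation; propofol titration acted as positive control.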
* = called active by the depositor; ? = inconclusive; . = no result given; & = joins results of further samples; [ ] = remark or other dose. Calls follow the shape of the dose curve; as a rule, active = well fitted curve in the direction sought with a large enough effect; inconclusive = small, poorly fitted or top-dose-only effect, or another doubt; inactive = no such curve, though single readings can be large; an effect the other way counts as inactive or inconclusive. Unless noted, % is scaled to controls: 0 for no effect and ±100 for the full control effect; potency is read from the fitted curve at half-maximal effect. These rows are one share of the data (hit frequency here may not be typical).

A first look (eleven entries):
Values run as follows: APEX1 inh, BLM inh, Apoferritin bind
1. NS(=O)(=O)c1ccc(CNC(=O)Cc2cccs2)cc1
  -45%, ?, -10%
2. CC[n+]1c(/C=C/N(C)c2ccccc2)oc2ccccc21
  1%, -5%, 1%
3. CCc1ccc(NC(=O)c2noc3c2CCC3)cc1
  ?, -24%, ?
4. Cc1sc2ncnc(SCC(=O)Nc3ncccc3O)c2c1C
  ?, ., .
5. CC(C)NC[C@@H](O)COc1cccc2ccccc12
  12%, 26%, -8%
6. CC(=O)OCC1=C(C(=O)O)N2C(=O)C(NC(=O)CSc3ccncc3)[C@@H]2SC1 (some centres not stated)
  -7%, -2%, -5%
7. O=C(CNC(=O)c1cccc(OC(F)F)c1)OCc1cc(=O)n2cc(Br)ccc2n1
  7%, -19%, 2%
8. CN(CC(=O)Nc1sccc1C#N)C1CCCCC1
  -1%, -26%, -4%
9. O=C(CCS(=O)(=O)c1ccc(Br)cc1)NCCC1=CCCCC1
  2%, -8%, -3%
10. CN1CCN2c3ccccc3Cc3ccccc3[C@@H]2C1
  -4%, 0%, -7%[29.3 µM]
11. O=C(O)C/C(=C\c1cc(Cl)c2c(c1)OCO2)c1nc2ccccc2s1
  ?, -28%, 0%

The listing (from the top)
Values run as follows: APEX1 inh, BLM inh, Apoferritin bind
1. NS(=O)(=O)c1ccc(CNC(=O)Cc2cccs2)cc1
  -45%, ?, -10%
2. CC[n+]1c(/C=C/N(C)c2ccccc2)oc2ccccc21
  1%, -5%, 1%
3. CCc1ccc(NC(=O)c2noc3c2CCC3)cc1
  ?, -24%, ?
4. Cc1sc2ncnc(SCC(=O)Nc3ncccc3O)c2c1C
  ?, ., .
5. CC(C)NC[C@@H](O)COc1cccc2ccccc12
  12%, 26%, -8%
6. CC(=O)OCC1=C(C(=O)O)N2C(=O)C(NC(=O)CSc3ccncc3)[C@@H]2SC1 (some centres not stated)
  -7%, -2%, -5%
7. O=C(CNC(=O)c1cccc(OC(F)F)c1)OCc1cc(=O)n2cc(Br)ccc2n1
  7%, -19%, 2%
8. CN(CC(=O)Nc1sccc1C#N)C1CCCCC1
  -1%, -26%, -4%
9. O=C(CCS(=O)(=O)c1ccc(Br)cc1)NCCC1=CCCCC1
  2%, -8%, -3%
10. CN1CCN2c3ccccc3Cc3ccccc3[C@@H]2C1
  -4%, 0%, -7%[29.3 µM]
11. O=C(O)C/C(=C\c1cc(Cl)c2c(c1)OCO2)c1nc2ccccc2s1
  ?, -28%, 0%
12. CC(C)NC[C@H](O)COc1cccc2ccccc12
  1%&2%&7%, 38%[activator], -3%&-1%
13. CCc1ccccc1NC(=O)CNC(=O)CCc1nc2sc3c(c2c(=O)[nH]1)CCCC3
  -19%, ., .
14. Cc1ncc([N+](=O)[O-])n1CCOC(=O)c1cc(Cl)cc(Cl)c1N
  ?, -20%, 2%
15. CN(CC(=O)Nc1cccc(F)c1)C(=O)CN1c2cccc3cccc(c23)S1(=O)=O
  1%, ., .
16. CC(=O)c1cccc(NC(=O)CCc2nc3sc4c(c3c(=O)[nH]2)CCCC4)c1
  -16%, ., .
17. O=C(CC1Sc2ccccc2NC1=O)OCc1cc(=O)oc2cc(O)ccc12 (configuration not stated)
  0%, -19%, 59%[activator]
18. CC1(NC(=O)CCc2nc3sc4c(c3c(=O)[nH]2)CCCC4)CCS(=O)(=O)C1 (configuration not stated)
  -41%, ., .
19. CCN(CC(=O)Nc1ccc(NC(C)=O)cc1)CC(=O)Nc1ccc(Cl)c(Cl)c1
  20%, -2%, -1%
20. COc1ccccc1OCc1nnc(SCC(=O)NCc2ccco2)n1Cc1ccco1
  ?, -21%, -16%
